Screening results (PubChem)
N370S GC: inhibitors or activators of N370S glucocerebrosidase for Gaucher disease; N370S GC spleen homogenate, 4MU-glucoside fluorescence; 330,000 tested, 0.092% active; Potency, µM (series often up to 59.4 µM), for inactives: at the top dose activity change, negative = inhibition, usual class: inhibitors; AID 2101; P04062;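 also: 0% = full enzyme activity and -100% = no enzyme basal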
FEN1 inh: blocks human flap endonuclease 1; P39748; Recombinant FEN1 flap cleavage, fluorescence, 15 min; Potency, µM (series often up to 114 µM), for inactives: top-dose activity change, negative = inhibition, usual class: inhibitors; 390,000 tested, 0.35% active; AID 588795; also: nearly all actives have a fitted effect of over 65% in size
Target sequence (P39748 whole entry, looked up): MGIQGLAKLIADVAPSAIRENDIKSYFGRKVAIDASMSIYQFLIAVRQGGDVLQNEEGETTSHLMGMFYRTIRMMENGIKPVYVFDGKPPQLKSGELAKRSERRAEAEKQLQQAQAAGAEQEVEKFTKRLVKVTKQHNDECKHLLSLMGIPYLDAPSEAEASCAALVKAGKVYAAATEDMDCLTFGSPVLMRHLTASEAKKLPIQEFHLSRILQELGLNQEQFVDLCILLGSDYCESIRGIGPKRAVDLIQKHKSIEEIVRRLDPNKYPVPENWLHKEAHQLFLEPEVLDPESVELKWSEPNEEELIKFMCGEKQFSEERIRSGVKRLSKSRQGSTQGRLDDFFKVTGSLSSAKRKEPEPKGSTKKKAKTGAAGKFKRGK
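In this screen, 50 nM flap DNA substrate was added to 10 nM FEN1 pretreated with compound for 15 min at room temperature; cleavage was followed with reads at 0 and 15 min, and Hill fitting gave concentration–response parameters.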
* = called active by the depositor; ? = inconclusive; / = not tested or not shown; & = joins results of further samples; [ ] = dose if it differs, or a comment. Calls follow the shape of the dose curve; as a rule, active = well fitted curve in the direction sought with a large enough effect; inconclusive = small, poorly fitted or top-dose-only effect, or another doubt; inactive = no such curve, though single readings can be large; an effect the other way counts as inactive or inconclusive. Unless noted, % is scaled to controls: 0 for no effect and ±100 for the full control effect; potency is read from the fitted curve at half-maximal effect. The list is partial; most or all hits stand in other tables.

N370S GC,FEN1 inh,SMILES
/,-3.6%,CCOc1ccc(-n2c(=O)c3c(C)c(C)sc3n(Cc3c(F)cccc3Cl)c2=O)cc1
4.2%,-14.7%,N#Cc1cn(-c2ccccc2)nc1-c1ccco1
1.7%&-19.6%,18.1%,CN=C(N)NCCC[C@H](N)C(=O)O
5.5%,-3.8%,CN(Cc1cccs1)C(=O)CSc1nnnn1C
4.6%,0.8%,O=C(CCc1ccc(S(=O)(=O)NC2CCCCC2)cc1)Nc1ccccc1
11.3%,-7.6%,CCN(CC)S(=O)(=O)c1cc(C(=O)Nc2ccccc2C(=O)O)ccc1OC
-1.0%,-0.8%,CC1=CS(=O)(=O)CC1Sc1ncn[nH]1 (stereo not given)
4.2%,8.8%,Fc1cccc(Cl)c1CSc1ncn[nH]1
?,?,CC(=O)NCCNc1nc2c(-c3cccc(C)c3)nnn2c2ccccc12
-1.6%,7.0%,CC(C)N1CCC(NC(=O)NC2CCCCC2)CC1
-6.9%,-14.4%,COc1cccc(COC(=O)C2CCN(C(=O)c3ccc(F)cc3)CC2)c1OC
5.0%,1.0%,Cn1c(=O)cc(OCCCC(=O)N2CCN(Cc3ccc4c(c3)OCO4)CC2)c2ccccc21
-14.9%,-13.1%,CCOc1ccc(C(=O)Oc2cc(C)[nH]c(=O)c2[N+](=O)[O-])cc1OCC
-6.0%,-1.6%,O=C(C(Cl)c1ccccc1)N1CCOCC1 (stereo not given)
/,-6.4%,Cc1ccc(-n2nc(CO)c(C(=O)NCCC(C)C)n2)cc1C
-4.7%,8.5%,Cc1cc(C(=O)N/N=C/C=C/c2ccc3c(c2)OCO3)n[nH]1
-17.6%,-0.5%,COc1cccc(N2CCN(S(=O)(=O)c3c(C)[nH]c(C)c3C(=O)N3CCCC3)CC2)c1
0.6%,-12.2%,CCOC(=O)C1=C(COC(=O)c2ccc(C)c(S(=O)(=O)N3CCOCC3)c2)NC(=O)NC1C (stereo not given)
7.7%,-1.5%,Cc1ccc(C2=NNC(C(O)C(O)C(O)C(O)CO)S2)cc1 (stereo not given)
-24.3%,-9.7%,O=C(O)c1cc(-c2ccccc2Cl)n[nH]1
1.5%,0.8%,COc1ccc(N2CCN(C(=N)/C(C(C)=O)=C(\C)O)CC2)cc1
-17.0%,-0.9%,Cc1c(C(=O)NCc2ccc3c(c2)OCO3)oc2ccc(Br)cc12
-4.0%,1.1%,CCOc1ncccc1C(=O)OCC(=O)NC1CCCCCC1
0.4%,-3.6%,CCc1ccccc1NC(=S)N(Cc1ccco1)C(C)c1cccs1 (stereo not given)
-28.4%,-16.0%,O=C(/C=C/c1ccccc1)N1CCN(c2ccc([N+](=O)[O-])c(N3CCOCC3)c2)CC1
-2.0%,-2.5%,CC(=O)N1CCOc2ccc(S(=O)(=O)NCC3CCC(C(=O)NCCC(C)C)CC3)cc21 (stereo not given)
-6.5%,-1.9%,CC1(C)Cc2c(sc(/N=C/N3CCCCCC3)c2C#N)C(C)(C)N1
-14.8%,-4.8%,CCc1cccc(C)c1NC(=O)CCCC(=O)O
-2.7%,-8.3%,O=C1CCC(C(=O)NCCCn2ccnc2)N1 (stereo not given)
19.5%,-4.4%,COCCCNc1nc2c(-c3cccc(C)c3)nnn2c2ccccc12

The listing continues:
N370S GC,FEN1 inh,SMILES
11.5%,1.1%,COc1ccc(Cn2cnc3c4cc(F)ccc4n(C)c3c2=O)cc1
-1.2%,7.6%,O=C(NC(=S)NCC1CCCO1)c1cccc([N+](=O)[O-])c1 (stereo not given)
-2.9%,-6.2%,COc1ccc(/C=N/NC(=O)Cn2ccnc2C)cc1OC
/,-3.9%,COc1ccc(N2CCN(C(=O)c3oc4ccccc4c3NC(=O)c3ccccc3OC)CC2)cc1
2.2%,-3.2%,FC(F)(F)c1cccc(CN2CCCCCC2)c1
6.0%,-11.2%,Cc1ccccc1Nc1nnc(C)c(=O)n1N
15.2%,-4.6%,O=C(CCCn1c(=S)[nH]c2ccc(Br)cc2c1=O)NCC1CCCO1 (stereo not given)
1.3%,-6.1%,CCc1ccc(NC(=O)CCCNC(=O)Cn2cnc3sc(C)c(C)c3c2=O)cc1
1.0%,-7.0%,COc1ccc(NC(=O)C2CCCN2C(=O)Nc2ccccc2)cc1OC (stereo not given)
/,0.0%,Cc1cccc(CNC(=O)c2cnc3c(-c4cccc(C)c4)c(C)nn3c2C)c1
-10.0%,4.2%,Cc1nn(-c2ccc(Cl)nn2)c(=O)c2ccccc12
5.6%,-1.7%,O=C(CSc1nc(C(F)(F)F)cc(=O)[nH]1)NCC1CCCO1 (stereo not given)
-2.6%,-6.0%,COc1ccc(Cl)cc1C(=O)NNC(=O)c1nc2nc(C)cc(C)n2n1
23.0%,0.1%,CCc1ccc(N(C(=O)Cn2nnc(-c3ccccc3)n2)C(C(=O)NC2CCCCC2)c2ccccn2)cc1 (stereo not given)
4.7%,6.3%,Cc1cccc(C(=O)NCC(=O)OCC(=O)c2cc(C)n(CC3CCCO3)c2C)c1 (stereo not given)
5.4%,1.3%,COc1ccc(-n2nc(C(=O)NCc3ccco3)c3ccccc3c2=O)cc1
-15.7%,11.9%,O=C(O)CCc1ccc(-c2cccs2)n1NC(=O)c1ccc(Cl)cc1
21.0%,-7.7%,Cc1cccc(OCc2nnc(SCC(=O)N3CCCC3)n2C)c1
6.7%,-23.2%,COC(=O)c1ccccc1NC(=O)c1cc(OC)cc(OC)c1
/,3.5%,O=C(CCNC(=O)c1ccco1)Nc1nc(-c2ccccc2)cs1
-5.0%,3.5%,O=C1CCCC/C1=C\Nc1ccc(Cl)cn1
-4.4%,39.8µM*,Cc1cc(C)c2nc3nc(C)cc(C)c3c(N)c2c1
-18.5%,6.6%,CC1CCCCN1C(=O)CN1C(=O)c2ccccc2S1(=O)=O (stereo not given)
/,1.1%,Cc1ccc(S(=O)(=O)Nc2nc(CN3CCOCC3)nc3sc(C)c(C)c23)cc1
-1.0%,0.5%,CCOCc1nnc(NC(=O)C2CC(=O)N(C3CCCC3)C2)s1 (stereo not given)
-16.7%,-2.3%,Cc1cc(NC(=O)CN2CCCC(C)C2)no1 (stereo not given)
?,-1.8%,Cc1ccc(S(=O)(=O)CCC(=O)Oc2ccc3c(C)cc(=O)oc3c2)cc1
10.1%,-7.4%,O=C(Nc1ccc[n+](CC(=O)c2cccc3ccccc23)c1)c1ccccc1
/,-6.2%,CC1=C(C(=O)OCc2ccc(C)cc2)C(c2cccc(F)c2F)CC(=O)N1 (stereo not given)
-3.0%,10.3%,CCN(CC1CCCO1)C(=O)c1cc(COc2ccc(F)cc2F)on1 (stereo not given)

Ordered by length of the SMILES (high to low): 3 of the compounds above
N370S GC,FEN1 inh,SMILES
23.0%,0.1%,CCc1ccc(N(C(=O)Cn2nnc(-c3ccccc3)n2)C(C(=O)NC2CCCCC2)c2ccccn2)cc1 (stereo not given)
?,-1.8%,Cc1ccc(S(=O)(=O)CCC(=O)Oc2ccc3c(C)cc(=O)oc3c2)cc1
-2.6%,-6.0%,COc1ccc(Cl)cc1C(=O)NNC(=O)c1nc2nc(C)cc(C)n2n1

Record cards, from the list above:
Results for `CC(=O)NCCNc1nc2c(-c3cccc(C)c3)nnn2c2ccccc12` : N370S GC: ?; FEN1 inh: ?
Results for `O=C(O)CCc1ccc(-c2cccs2)n1NC(=O)c1ccc(Cl)cc1` : N370S GC: -15.7%; FEN1 inh: 11.9%

Structures above with a cyano group:
N370S GC,FEN1 inh,SMILES
4.2%,-14.7%,N#Cc1cn(-c2ccccc2)nc1-c1ccco1
-6.5%,-1.9%,CC1(C)Cc2c(sc(/N=C/N3CCCCCC3)c2C#N)C(C)(C)N1

(next part)
N370S GC,FEN1 inh,SMILES
-0.5%,-1.8%,CC1CN(S(=O)(=O)c2ccc(C(=O)Nc3ccc(S(=O)(=O)Nc4ncccn4)cc3)cc2)CC(C)O1 (stereo not given)
/,10.5%,Cc1ccc(OCC(=O)Nc2ccccc2C(=O)NC2CC2)cc1
/,10.2%,COc1ccccc1/C=C(\C#N)C(=O)NCC1CCCO1 (stereo not given)
-21.3%,-1.6%,O=C(COc1cccc(-n2cnnn2)c1)N1CCOCC1
0.4%,-14.4%,CCOc1ccccc1/C=C/c1onc(C)c1S(=O)(=O)N1CCC(C(=O)N2CCCCCC2)CC1
20.0%,21.5%,CC1(C)Oc2ccc(C(=O)NN)cc2NC1=O
/,8.4%,Cc1cc(=O)oc2cc(OC(C)C(=O)Nc3ccc(C(N)=O)cc3)ccc12 (stereo not given)
10.8%,-4.8%,CCNC(=O)NC(=O)C(C)Sc1nnc(COc2ccccc2Cl)o1 (stereo not given)
12.2%,-2.1%,O=S(=O)(c1ccccc1)N1CCN(c2cc(-c3ccccc3)nc3ncnn23)CC1
5.8%,-7.2%,O=C(NCC(c1cccnc1)N1CCOCC1)NC1CCCCC1 (stereo not given)
15.6%,9.8%,CCOc1ccc(CNC(=O)C2CCCN(S(C)(=O)=O)C2)cc1OC (stereo not given)
1.6%,-17.3%,COc1ccc(N2CCN(C(=O)CN(c3cccc(Br)c3)S(C)(=O)=O)CC2)cc1
-8.4%,0.6%,CCCCN1C(N)=NC[C@H]1Cc1ccc(O)cc1
1.8%,-2.6%,CN(C)CCC(=O)NCC1OCCc2ccccc21 (stereo not given)
9.0%,2.3%,O=C(O)CCCC(=O)NNc1ncnc2ccccc12
-1.4%,2.6%,COC(=O)c1cc(C)sc1NC(=O)CSc1ncccn1
8.3%,-3.9%,CCOC(=O)C1CCCN(C(=O)/C=C/c2ccc(OC)cc2)C1 (stereo not given)
-9.3%,-0.7%,CCCN(CCC)CCN1C(=O)C2C(C(=O)Nc3ccc(C)cc3)C3C=CC2(O3)C1C(=O)NC1CCCCC1 (stereo not given)
3.6%,17.0%,CCC(C)NC(=O)c1ccc(CSc2nc3ccncc3n2Cc2ccc(F)cc2)cc1 (stereo not given)
-17.7%,-5.8%,CN(CC1CCOCC1)C(=O)c1ccc2nc(Cc3cccc(Cl)c3)oc2c1
-1.7%,4.6%,COc1ccc(CC(=O)Nc2cccc(-c3ccc4nnc(C)n4n3)c2)cc1
-10.6%,1.3%,O=C(CNC(=O)c1ccc(Br)o1)NCc1ccc(F)cc1
-0.1%,/,O=C(Oc1ccccc1C(=O)O)c1ccccc1O
-0.8%,-1.0%,COc1cccc(OC)c1C(=O)NC(=O)Oc1c(F)cccc1F
23.6%,1.3%,Cc1ccsc1-c1n[nH]c(=S)n1CC(C)C
-17.1%,0.9%,Cc1ccc2[nH]c(=O)c(CN(CCCO)S(=O)(=O)c3cccc4nsnc34)cc2c1
6.2%,2.3%,Cc1cc(NC(=O)CN2CCN(c3ccc(O)cc3)CC2)no1
-1.9%,-3.6%,COCC(C)NC(=O)c1noc2c1CCc1cc(OC)ccc1-2 (stereo not given)
6.5%[12.8 µM],-2.5%,O=S1(=O)C=CC(Nc2ccccc2)C1 (stereo not given)
-1.7%,3.7%,COCCn1c(N)c(Sc2ccccc2)c(=O)[nH]c1=O

(list continues)
N370S GC,FEN1 inh,SMILES
/,-5.2%,Cc1ccc(CCNC(=O)CNC(=S)N(Cc2ccccc2)Cc2cccnc2)cc1
3.1%,-6.8%,COc1cc(CNCCC2CCOC(C)(C)C2)ccc1O (stereo not given)
8.9%,-4.3%,CCOC(=O)c1cc(CN2CCOCC2)oc1-c1ccccc1
/,1.1%,Cc1ccc(C)c(OCCC(=O)Nc2ccc3c(c2)OCO3)c1
-1.3%,11.4%,O=C(CCc1nnc2ccc(NCc3ccccc3Cl)nn12)NC1CCCC1
9.6%,-15.8%,CC(=O)Nc1ccc(NC(=O)Nc2ccc3c(c2)N(C)C(=O)CS3)cc1
6.1%,-3.9%,COc1ccccc1C(=O)NC(=S)N1CCc2ccccc21
-9.5%,3.1%,CC1CN(C(=S)Nc2ccccc2F)CC(C)O1 (stereo not given)
1.4%,-0.8%,Cc1csc(NC(=O)c2nc3nccc(C)n3n2)n1
/,-2.1%,Cc1ccc(Cl)cc1N(C)C(=O)Cn1nc(Cc2cccnc2)c2ccccc2c1=O
3.7%,18.3%,O=C(c1ccc([N+](=O)[O-])s1)N1CCN(c2ccccc2)CC1
-4.1%,-17.8%,CON(C)S(=O)(=O)c1ccc2c(c1)NC(=O)C1CCCN21 (stereo not given)
0.6%,3.0%,CCOC(=O)CSc1nc2ccc(C)cc2n2cnnc12
23.7%,14.2%,CC(=O)Nc1ccc2nc(C3CC3)n(Cc3ccc(Cl)cc3)c(=O)c2c1
2.6%,3.1%,CC(=O)N1c2ccccc2C(C)(C)C2CCC(C)CC21 (stereo not given)
-2.2%,-14.6%,COc1ccc(C2N(c3ccc(F)cc3)C(=O)C3CCCN32)cc1 (stereo not given)
5.1%,2.3%,Cc1nc2ccc(NC(=O)c3ccc([N+](=O)[O-])cc3[N+](=O)[O-])cc2s1
7.2%,7.4%,CCCc1cc(=O)[nH]c(SCC(=O)Nc2cc3c(cc2C(C)=O)OCO3)n1
1.1%,-14.9%,O=C1C2CC=C(Cl)CC2C(=O)N1CC1OCCc2ccccc21 (stereo not given)
12.2%,-1.2%,Cc1cc2ccccc2c(=O)n1CC(=O)NCC(=O)N1CCN(c2ccccc2F)CC1
6.1%,-5.0%,Cc1ccccc1OCc1nnc2n1CC(C)S2 (stereo not given)
-1.0%,0.0%,CCCCn1c(N)c(N(CC(C)C)C(=O)c2c(CC)noc2C)c(=O)[nH]c1=O
-7.2%,-1.2%,C/C(=N/NC(=O)c1ccc(Cl)s1)c1ccc(NC(=O)COc2ccc(Cl)cc2)cc1
